# Assay outcomes as filed in PubChem BioAssay.
# YopH PTP inh: YopH tyrosine phosphatase inhibitors, primary screen, biochemical, fluorescence Ex485/Em525. inhibition, %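 (about 10 µM by stock and volumes)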. actives 0.16% (n = 140,000). AID 898, 2007;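 active means inhibition of 50% or more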;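 further: controls were vehicle for no effect and minimum signal wells for full effect; inactives centre near -20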
# RecA intein inh: Mtb RecA intein splicing inhibitors, primary screen, biochemical, fluorescence, HTS; cell-free RecA intein splicing; inhibition, %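 (about 9 µM by stock and volumes)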; actives 0.75% (n = 290,000); Protein RecA (Mycobacterium tuberculosis (strain ATCC 25618 / H37Rv)), P9WHJ3; in the data active means inhibition above about 30%; inconclusive means no clear call, values can overlap the other calls;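 further: 0% = vehicle wells and 100% = reference inhibitor control wells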
# Target sequence (P9WHJ3 whole entry, looked up): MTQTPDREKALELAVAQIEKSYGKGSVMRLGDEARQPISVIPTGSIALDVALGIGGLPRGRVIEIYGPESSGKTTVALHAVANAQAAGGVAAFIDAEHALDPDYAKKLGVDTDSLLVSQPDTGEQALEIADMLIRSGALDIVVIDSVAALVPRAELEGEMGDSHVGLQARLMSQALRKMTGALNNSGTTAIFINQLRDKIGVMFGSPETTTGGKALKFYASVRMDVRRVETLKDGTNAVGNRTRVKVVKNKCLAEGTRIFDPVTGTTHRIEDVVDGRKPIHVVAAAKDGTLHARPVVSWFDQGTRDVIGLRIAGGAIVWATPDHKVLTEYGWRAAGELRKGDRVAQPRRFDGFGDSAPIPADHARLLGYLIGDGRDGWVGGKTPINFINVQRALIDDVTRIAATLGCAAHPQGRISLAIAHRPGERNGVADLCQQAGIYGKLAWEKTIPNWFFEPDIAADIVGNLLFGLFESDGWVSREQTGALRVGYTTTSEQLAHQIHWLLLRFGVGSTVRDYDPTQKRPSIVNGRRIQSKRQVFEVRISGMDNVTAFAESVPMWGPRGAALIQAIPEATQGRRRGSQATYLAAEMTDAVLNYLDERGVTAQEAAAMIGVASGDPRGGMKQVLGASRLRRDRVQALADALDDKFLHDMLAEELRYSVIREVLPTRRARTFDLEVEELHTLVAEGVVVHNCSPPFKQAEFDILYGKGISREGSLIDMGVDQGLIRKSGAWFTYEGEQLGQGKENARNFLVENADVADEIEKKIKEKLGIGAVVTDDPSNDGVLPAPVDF
# Mtb H37Rv: M. tuberculosis H37Rv growth inhibitors, H37Rv strain (AID 1626); M. tuberculosis H37Rv growth inhibition; higher % means a stronger effect; inhibition, % at 10 µM; hits with a dose series show IC50 in µM; actives 0.95% (n = 220,000);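 active means confirmed in a dose series; inconclusive means inhibition above 80% but not taken into the dose series; inactive means below 80% or under 30% at every dose of the series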;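 further: bacteria incubated seven days before Alamar blue readout; 0% = bacteria only wells and 100% = bacteria with antibiotic wells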
# Mtb betalactam: beta-lactam sensitization of Mtb H37Rv, H37Rv; inhibition, % at 25 µM; actives 0.27% (n = 330,000); M. tuberculosis H37Rv growth with meropenem, percent inhibition; hits of this screen are not shown here; AID 434955, 2010;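 active means about 74% or more and at least 40 points above the plate without the antibiotic, then above 30% in a dose series; inconclusive means first-round hits that could not be retested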;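 further: growth measured after seven days incubation then overnight dye step; 0% = bacteria only wells and 100% = bacteria with antibiotic; twin plates without the antibiotic show which effects depend on it; some results filed as inactive read as strong as hits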
# Arbovirus anti: antivirals against arbovirus infection, primary screen, cell-based, full library, 10K replicate subset | arbovirus infection cell-based antiviral screen | inhibition, % at 10 µM | actives 0.37% (n = 200,000) | AID 1251, 2008;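 active means inhibition from about 30%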;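 further: bluetongue infection of BSR cells; cell survival read as ATP light after 72 h; 0% = infected wells without compound and 100% = uninfected wells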
# Arbovirus anti repeat: second read-out of Arbovirus anti, no call of its own (marks repeat the call); inhibition, %; measured here: 10K subset replicate screen; many hits read low in the repeat;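 first of two repeat runs on a subset; 0% = infected and 100% = uninfected wells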
# The depositor's hits bear a star; ? = inconclusive; nt = not tested or not shown. Not all compounds are listed; rates above refer to the full screens.
SMILES,YopH PTP inh,RecA intein inh,Mtb H37Rv,Mtb betalactam,Arbovirus anti,others
CCn1c(SCC(=O)Nc2ccc(NC(C)=O)cc2)nc2c([nH]c3ccccc32)c1=O,nt,-3.8,nt,9,nt,
CC(=O)Nc1ccc(C(=O)N(C)c2ccccc2)cc1,4,-1.1,-1%,0,8,
Cc1cc(C)nc(SCC(=O)N2CCCCC2)n1,-50,1.1,-3%,-4,3,Arbovirus anti repeat=-2
CC(C)(C)C(=O)NC1CC2CCCC(C1)N2C(=O)Nc1ccc(Cl)cc1 (stereo not given),nt,-1.7,nt,1,nt,
O=C1NC2(CCCCC2)Oc2ccccc21,-29,-1.1,-3%,-4,6,
Cc1c(NC(=O)CN2C(=O)C3C4C=CC(C4)C3C2=O)c(=O)n(-c2ccccc2)n1C (stereo not given),-24,-13,-6%,-1,-7,
CCOCC(=O)Nc1sc2c(c1C(=O)OCC)CCCC2,-12,5.7,nt,15,-9,
CC(C)(C)OC(=O)NCCCCCNC(=O)c1[nH]cnc1C(=O)N[C@@H](CCCCNC(=O)OC(C)(C)C)C(=O)OC(C)(C)C,nt,-2.7,16%,-4,-8,
CC1CCc2cc(F)ccc2N1S(=O)(=O)c1ccc(Cl)nc1 (stereo not given),-19,5.0,4%,-2,-9,
CCCCn1c(-c2csc(CC)c2)n[nH]c1=S,-24,1.4,-4%,1,0,
O=C(O)c1ccc(/C=C/c2nc3sc4c(c3c(=O)[nH]2)CCC4)cc1,nt,-45,-1%,13,13,
O=C(CC(SCCO)c1ccc2c(c1)OCO2)c1cccs1 (stereo not given),-31,1.7,7%,77,-29,
COc1cccc(CC2(CO)CCN(C(=O)NCCc3ccccc3)CC2)c1,nt,0.3,4%,41,6,
O=C(CCCCCNC(=O)N1CCn2c1nc1ccccc12)N[C@H](C(=O)O)c1ccccc1,nt,-2.5,nt,-1,nt,
COC(=O)C(C#N)C(=C1C(=O)CC(C)(C)CC1=O)c1ccc(O)cc1 (stereo not given),3,-6.1,-7%,5,10,Arbovirus anti repeat=4
COc1ccc(C2CC(C(F)(F)F)n3nc(C(=O)O)c(Br)c3N2)cc1 (stereo not given),-33,-5.2,-4%,3,6,
O=C(/C=C/c1c(F)cccc1Cl)c1ccc(O)cc1,nt,8.4,3%,30,nt,
OCCCCNCc1ccc(OCc2ccccc2Cl)cc1,-18,3.0,-5%,-3,-24,
CCCCNC(=O)CNC(=S)N(Cc1ccc(C)cc1)Cc1ccco1,nt,0.5,5%,1,5,
COc1ccc(OC)c(CCNC(=O)CN2C(=O)COc3ccc(S(=O)(=O)N4CCOCC4)cc32)c1,nt,1.4,nt,2,nt,
COc1cc(C(=O)NC(=S)Nc2cccc(-c3cc4ccccc4oc3=O)c2)cc(OC)c1OC,-18,1.9,2%,20,-5,
CCNS(=O)(=O)c1ccc(NC(=O)c2ccccc2OCC)cc1,-29,0.4,-4%,5,-2,
CC(C)C1/C(=N/O)CC(c2ccccc2)NC1c1ccccc1 (stereo not given),nt,-7.0,19%,3,nt,
C=CCn1c(SCC(=O)c2c(C)[nH]c3ccccc23)nnc1-c1ccncc1,nt,-0.6,0%,2,-16,
O=C1OCCC1Sc1nnnn1-c1ccc(Cl)cc1 (stereo not given),nt,0.1,1%,-4,1,
O=c1[nH]c2ccccc2nc1C(F)(F)F,nt,-2.6,-7%,4,nt,
COc1ccc(CCNC(=O)C23CN(Cc4ccccc4)CC2C(c2ccc([N+](=O)[O-])cc2)=NO3)cc1 (stereo not given),-29,9.7,4%,-11,5,
Cc1c(NS(=O)(=O)c2ccc(Br)s2)c(=O)n(-c2ccccc2)n1C,-13,nt,-5%,0,-1,
Cc1ccc(C)n1-c1ccc(C(=O)NCc2cccnc2)cc1,nt,1.9,3%,0,-12,
COc1ccc2oc(C(=O)OCC(=O)N(C)Cc3ccccc3)c(C)c2c1,nt,2.9,nt,3,nt,
COC(=O)c1ccc(C(=O)OC)c(NC(=O)CN(c2ccccc2)S(=O)(=O)N(C)C)c1,nt,0.2,-3%,-10,-7,
Cc1cccc(-c2nnc(NC(=O)c3ccco3)s2)c1,nt,0.0,nt,-7,nt,
COc1ccccc1/C=N/NC(=O)c1ccc(NC(=O)c2cccc([N+](=O)[O-])c2)cc1,nt,-0.1,-1%,5,-6,
O=C(O)c1cccc(NC(=O)c2ccc3c(c2)C(=O)N(Cc2ccco2)C3=O)c1,nt,0.7,-4%,-4,4,
CC1CCN(C(=O)c2ccc(N(C)S(C)(=O)=O)cc2)CC1,-1,1.1,-4%,9,6,
COc1ccc(S(=O)(=O)n2nc(OC(=O)c3ccco3)cc2N)cc1,-33,3.7,2%,5,11,
CCOn1c(=O)c(-c2ccccc2)[n+]([O-])c2ccccc21,nt,-1.1,nt,6,nt,
CCN(CC)c1ccc(NC(=O)c2ccccc2)cc1S(=O)(=O)Nc1ccccc1OC,-15,6.2,8%,38,7,
CCOC(=O)c1c(C)n(C)c2ccc(O)c(CN(C)C)c12,-45,nt,2%,-6,23,
CCOC(=O)CSc1nnc(-c2ccoc2C)n1-c1ccc(OCC)cc1,-40,2.5,7%,46,0,
O=C(NCCCc1ccccc1)C1CC(=O)N(c2ccc3c(c2)OCCO3)C1 (stereo not given),2,1.3,-3%,2,-3,
CCCn1nc(NC(=O)c2ccco2)c2cc3ccccc3nc21,nt,-80,0%,3,0,
CCC(C)NC(=O)CS(=O)Cc1nc(-c2cccc(C)c2)oc1C (stereo not given),-46,2.5,3%,-2,3,Arbovirus anti repeat=-4
COc1ccc(NC(=O)NC(C)c2ccccc2)cc1 (stereo not given),nt,1.1,nt,1,nt,
CCN(c1ccccc1)c1cc(C)nc2nc(C)nn12,-18,0.6,-5%,1,9,Arbovirus anti repeat=1
COc1c(S(=O)(=O)Nc2cccnc2)ccc(Cl)c1Cl,nt,1.0,3%,-1,0,
O=C(/C=C/c1cccc(O)c1)c1ccc(N2CCOCC2)cc1,nt,3.6,-5%,48,nt,
CCN1C(=O)[C@@H]2Cc3c([nH]c4ccccc34)C(c3cc(OC)c(OC)c(OC)c3)N2C1=S (stereo not given in full),nt,-2.3,nt,-6,nt,
Cc1ccc(CNC(=O)C(=O)NCCC2CCCCN2S(=O)(=O)c2ccc(C)cc2)cc1 (stereo not given),nt,3.5,nt,-3,nt,
CCCCCc1ccc(OCCCC[n+]2cccc(C)c2)c(CCCCC)c1,nt,nt,?,100,-35,
Cc1cc(C(=O)Nc2ncc(C)s2)c2ccccc2n1,nt,0.9,6%,-2,-4,
COc1ccccc1-n1c(C)cc(SC)c(C(C)=O)c1=S,-29,0.7,4%,19,5,
N#Cc1cc(Oc2ccccc2)c(-n2nnc3ccccc32)cc1C#N,33,3.0,-7%,-6,-2,
CCc1nc(SCC(=O)OC(C)C)c2ccccc2n1,nt,12,4%,-1,1,
Cc1cc(C)c(NC(=S)N2CCC(N(C)CC3CCCO3)CC2)c(C)c1 (stereo not given),-24,-0.8,-5%,-5,-3,
Cc1ccccc1C1c2[nH]c3ccccc3c2C[C@H]2C(=O)N(c3ccccc3C(=O)NCCN3CCOCC3)C(=O)N12 (stereo not given in full),nt,0.8,nt,-2,nt,
COc1cccc(NC(=O)c2cnsn2)c1,8,-2.4,-3%,2,3,
C=C(C)COc1ccc(-c2nc(N)ncc2Oc2ccccc2OC)c(O)c1,2,nt,-5%,0,-4,
CCOc1ccc(CC(=O)NCc2ccc3c(c2)cc(C)n3C)cc1,nt,3.7,9%,4,-2,
CCCCn1c(SCC(=O)NC2CC2)nnc1-c1ccncc1,nt,-3.6,nt,-8,nt,

# The list goes on:
SMILES,YopH PTP inh,RecA intein inh,Mtb H37Rv,Mtb betalactam,Arbovirus anti,others
COc1ccc(NC2CCCN(C(=O)CCc3ccncc3)C2)cc1OC (stereo not given),nt,-3.1,nt,-2,nt,
O=C(Nc1cccc(C(F)(F)F)c1)c1cccnc1N1CCN(c2ccccc2)CC1,5,8.5,10%,12,4,
N#Cc1c(N)sc2c1CCCCCC2,-26,0.9,-3%,53,6,
Cc1ccccc1CN1C(=O)C2(OCCCO2)c2ccccc21,-32,5.2,4%,8,-10,
CCn1c(=O)c(C(=O)CN2CCN(S(=O)(=O)c3ccc(C)cc3C)CC2)c(N)n(Cc2ccccc2)c1=O,9,7.9,59%,42,-21,
CN1C(=O)/C(=C/c2ccc(OCc3ccc(F)cc3)cc2)N(C)C1=S,nt,0.3,nt,78,nt,
O=C(NCCCN1CCCC1=O)c1cccc(Oc2ccccc2)c1,nt,-0.1,9%,-3,4,
CCOc1ccc(C(C)NC(=O)c2cccs2)cc1OCC (stereo not given),nt,0.1,nt,-1,nt,
CC(C)Oc1ccc(S(=O)(=O)N2CCOCC2)cc1NC(=O)c1ccc(N2CCCC2=O)cc1,nt,-1.5,nt,-16,nt,
CCOC(=O)COc1cccc2c(=O)n(CC(=O)NCCc3ccc(OC)c(OC)c3)ccc12,-11,nt,74%,nt,-2,
Cc1cc(S(=O)(=O)n2ccnc2)c(Cl)cc1Cl,nt,0.6,5%,0,3,
COc1cccc(CN2CCN(Cc3ccc4c(NC(C)=O)cccc4n3)CC2CCO)c1 (stereo not given),nt,-0.4,-2%,-1,-2,
CC12CCC(C(=O)Nc3cc(Cl)ccc3Cl)(C(Br)C1=O)C2(C)C (stereo not given),-17,-1.4,-8%,-2,-11,
CCOc1ccc(CNC(=O)Cn2c(=O)c3cccn3c3ccccc32)cc1,nt,-2.4,nt,6,nt,
COc1ccc(C(=O)NC(=S)Nc2ccc(CN3CCOCC3)cc2)cc1OC,nt,-0.2,-8%,-6,nt,
CCc1ccc(NC(=O)c2cnccn2)cc1,nt,2.9,nt,0,nt,
COc1cccc(-c2coc3cc4oc(=O)c(CCC(=O)O)c(C)c4cc23)c1,nt,0.7,nt,0,nt,
COC(=O)c1cccc(NC(=S)Nc2ccccc2Cl)c1,nt,1.1,3%,-6,nt,
COCc1n[nH]c(=S)n1-c1ccccc1,-31,0.1,7%,-5,1,
O=C(CSc1ncnc2c1nnn2Cc1ccccc1)NC1CCCCC1,nt,24,nt,2,nt,
COc1cc(/C=N/NC(=O)c2cccnc2)ccc1OCC(=O)Nc1ccccc1Cl,nt,1.9,10%,-2,9,
C=CCn1c(SCC(=O)c2[nH]c(C)c(C(=O)OCC)c2C)nc2scc(-c3ccc(OC)c(OC)c3)c2c1=O,1,-2.0,12%,7,-39,
CN1CCN(c2ccc3c(c2)S(=O)(=O)c2ccccc2C3=O)CC1,nt,-188,6%,57,nt,
COc1cc(OC)c(C(=O)OC(C)C(=O)Nc2cccc(C(F)(F)F)c2)cc1OC (stereo not given),-16,1.5,0%,1,4,
C/C(=N\NS(=O)(=O)c1ccc(Br)cc1)c1ccc2c(c1)OCO2,nt,1.9,nt,-7,nt,
COC(=O)/C(=C/Nc1cccc2ccccc12)[N+](=O)[O-],-17,nt,71%,2,-7,
O=C(c1ccc(NS(=O)(=O)c2ccc3[nH]c(=O)[nH]c3c2)cc1)N1CCN(c2ccccc2O)CC1,nt,3.8,nt,-5,nt,
CCOC12NC(=O)CC(=O)N1C(c1ccccc1)=CS2 (stereo not given),-38,0.1,5%,4,1,Arbovirus anti repeat=1
O=C(Nc1ccccn1)C1(c2ccccc2)CCCC1,1,3.3,9%,50,-6,
O=C(NCc1ccc2c(c1)OCO2)Nc1ccc(Cl)cc1,nt,2.5,nt,-5,nt,
Cc1ccc(S(=O)(=O)N2CCN(Cc3ccsc3)CC2)cc1,nt,-1.8,-5%,-3,-1,

# A run of entries of the results above, for reference:
SMILES,YopH PTP inh,RecA intein inh,Mtb H37Rv,Mtb betalactam,Arbovirus anti,others
COCc1n[nH]c(=S)n1-c1ccccc1,-31,0.1,7%,-5,1,
O=C(CSc1ncnc2c1nnn2Cc1ccccc1)NC1CCCCC1,nt,24,nt,2,nt,
COc1cc(/C=N/NC(=O)c2cccnc2)ccc1OCC(=O)Nc1ccccc1Cl,nt,1.9,10%,-2,9,
C=CCn1c(SCC(=O)c2[nH]c(C)c(C(=O)OCC)c2C)nc2scc(-c3ccc(OC)c(OC)c3)c2c1=O,1,-2.0,12%,7,-39,
CN1CCN(c2ccc3c(c2)S(=O)(=O)c2ccccc2C3=O)CC1,nt,-188,6%,57,nt,
COc1cc(OC)c(C(=O)OC(C)C(=O)Nc2cccc(C(F)(F)F)c2)cc1OC (stereo not given),-16,1.5,0%,1,4,
